High-throughput results (PubChem)
Cruzain Triton: blocks cruzain activity in presence of Triton detergent. P25779. hit rate 0.43% among 200,000. purified cruzain, Z-FR-AMC fluorescence, 0.01% Triton. Potency, µM, for inactives: max response, negative = inhibition, hits mostly inhibitors;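 note: plate controls were neutral wells for no effect and buffer without enzyme for full effect; nearly all actives have a fitted effect of over 40% in size; top concentration of the series not given in the record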
Target sequence (P25779 123-467 limits assumed): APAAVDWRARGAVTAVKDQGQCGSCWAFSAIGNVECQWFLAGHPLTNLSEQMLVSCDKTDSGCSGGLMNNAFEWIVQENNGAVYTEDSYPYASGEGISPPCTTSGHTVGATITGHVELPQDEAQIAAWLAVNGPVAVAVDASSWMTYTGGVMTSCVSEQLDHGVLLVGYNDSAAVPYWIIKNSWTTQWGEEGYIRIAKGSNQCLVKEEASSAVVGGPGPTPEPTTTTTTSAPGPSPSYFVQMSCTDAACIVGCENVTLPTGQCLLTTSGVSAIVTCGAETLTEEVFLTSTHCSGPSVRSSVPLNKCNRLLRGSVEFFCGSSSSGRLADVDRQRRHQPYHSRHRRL
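In this qHTS format, compounds are incubated with 1.5 nM cruzain for 15 min at room temperature before 2 uM Z-FR-AMC is added. Release of AMC is followed at 360/450 nm, and progress is taken as the 60 s fluorescence difference.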
SARS PLP yeast: SARS-CoV PLP inhibition in yeast; S. cerevisiae expressing SARS-CoV PLpro, growth rescue; control for the full effect not named in the record; Potency, µM (titrated, usually from 32.9 µM), for inactives: at the highest dose activity, positive = growth rescue; hit rate 0.19% among 330,000; active means well fitted rising curve with a large enough effect; inconclusive means small, poorly fitted or top-dose-only effect; inactive means no such curve, though single readings can be large or run the other way; note: 0% is about no effect; nearly all actives have a fitted effect of over 55% in size; growth read by luminescence after 48 h
NS1 function inh: influenza NS1 inhibition. S. cerevisiae slowed by influenza A NS1, growth recovery by OD600. Potency, µM (doses to about 46.1 µM), without a hit: top-dose activity, positive = more growth. hit rate 0.4% among 270,000. AID 2326; active means well fitted rising curve with a large enough effect; inconclusive means small, poorly fitted or top-dose-only effect; inactive means no such curve, though single readings can be large or run the other way; note: nearly all actives have a fitted effect of over 50% in size
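Recovery from NS1-induced slow growth read by OD600 in budding yeast switched to galactose assay medium (pH 6.0, -URA) at 1:100 dilution. Compound 23 nl per well; the matching strain lacking NS1 serves as control.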
Marburg entry inh: inhibitors of Marburg virus binding or cell entry; Marburg virus pseudotyped entry inhibition, cell reporter; control for the full effect not named in the record; about a third of the inactives were read at about 46 µM; Potency, µM (doses to about 37.8 µM), for inactives: at the highest dose activity change, negative = inhibition, most hits filed as inhibitors; hit rate 1.8% among 300,000; active = well fitted inhibition curve with a large enough effect; inconclusive = small, poorly fitted or top-dose-only effect, or effect the other way; inactive = flat fitted curve, though single readings scatter; tested in HEK293 cells; about a fifth of its hits are not listed in these tables; note: % is set by controls: 0 for no effect and ±100 for the full control effect; luciferase read-out
RE007 growth inh: less growth of the S. pombe RE007 Vpr strain; S. pombe RE007 Vpr strain, BacTiter-Glo ATP luminescence, 24 h; control for the full effect not named in the record; Potency, µM (series often up to 92.2 µM), for the others: at the highest dose activity change, negative = less growth; hit rate 0.21% among 360,000; AID 651644; active = well fitted falling curve with a large enough effect; inconclusive = small, poorly fitted or top-dose-only effect; inactive = no such curve, though single readings can be large or run the other way;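 note: % is set by controls: 0 for no effect and ±100 for the full control effect; nearly all actives have a fitted effect of over 50% in size; the assay follows cell death caused by Vpr and the record does not say whether a fall means rescue or toxicity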
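Fission yeast strain RE007, carrying one chromosomally integrated HIV-1 vpr copy, was seeded at OD 0.01 in PMG+AL medium with 23 nL pinned compound. After 24 h at 30 °C and 99% humidity, viability was read by BacTiter-Glo luminescence.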
Cruzain noTriton: inhibitors of Trypanosoma cruzi cruzain without detergent | hit rate 2.3% among 200,000 | Potency, µM, for inactives: max response, negative = inhibition, hits mostly inhibitors | P25779 | AID 1476 | purified cruzain, Z-FR-AMC fluorescence, no detergent;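 note: plate controls were enzyme without inhibitor for no effect and buffer without enzyme for full effect; nearly all actives have a fitted effect of over 40% in size; top concentration of the series not given in the record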
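Purified cruzain at 1.5 nM, pre-incubated 15 min with compound at room temperature in 100 mM sodium acetate pH 5.5, 5 mM DTT, 0.00005% Triton X-100. Reaction started with 2 uM Z-FR-AMC; AMC fluorescence increase over 60 s gives rate.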
Lassa entry inh: blocks Lassa virus binding to or entry into cells. Lassa virus pseudotype entry inhibition, cell reporter; control for the full effect not named in the record. Potency, µM (series often up to 37.9 µM), inactives show at the highest dose activity change, negative = inhibition, usual class: inhibitors. hit rate 1.2% among 300,000. AID 540256; active means well fitted inhibition curve with a large enough effect; inconclusive means small, poorly fitted or top-dose-only effect, or effect the other way; inactive means flat fitted curve, though single readings scatter; tested in HEK293 cells; note: % is set by controls: 0 for no effect and ±100 for the full control effect; nearly all actives have a fitted effect of over 50% in size; luciferase read-out
2A StopGo: lowers the luciferase signal of an FMDV 2A StopGo reporter; Potency, µM (top dose mostly 57.9 µM), inactives show at the highest dose signal change, negative = less light; AID 1159524; human cells with a luciferase reporter of 2A StopGo recoding; control for the full effect not named in the record; hit rate 1.2% among 410,000; active = well fitted falling curve with a large enough effect; inconclusive = small, poorly fitted or top-dose-only effect; inactive = no such curve, though single readings can be large or run the other way; tested in HEK293T cells; note: % is set by controls: 0 for no effect and ±100 for the full control effect; nearly all actives have a fitted effect of over 45% in size; luciferase light after 4 h
* marks the source's active call; other numbers are inactive results; u = inconclusive; x = no result given; & = joins results of further samples; [ ] = another dose, or the depositor's remark. Unless noted, calls come from the whole dose curve; as a rule, active = well fitted curve in the direction sought with a large enough effect; inconclusive = small, poorly fitted or top-dose-only effect, or another doubt; inactive = no such curve, though single readings can be large; an effect the other way counts as inactive or inconclusive. Potency is the fitted concentration of half-maximal effect.

1	COC(=O)c1[nH]c2ccc(C)cc2c1NC(=O)CN1CCN(c2ccc(F)cc2)CC1
2	O=C(c1ccco1)N1CCN(c2ccc(N3CCCCC3)nn2)CC1
3	CC(C)(O)C#Cc1ccc(C(=O)N2CCCC(CCC(=O)NCc3ccccc3F)C2)cc1 (stereo unspecified)
4	Cc1ccsc1C(=O)NNC(=O)c1ccncc1
5	C/C=C(/C)C(=O)Nc1cccc(C2=NOC3(C2)C[C@H](C(N)=O)N(C(=O)c2ccc(Cl)cc2)C3)c1 (stereo partly specified)
6	COc1ccc(OC)c(C2C(C(C)=O)=C(O)C(=O)N2Cc2cccnc2)c1 (stereo unspecified)
7	COc1ccccc1/C=C/C=N/N1CCN(Cc2cccc3ccccc23)CC1
8	COc1cccc(NC(=O)c2nn(C)cc2Br)c1

assay / entry,1,2,3,4,5,6,7,8
Cruzain Triton,-3.1%,x,x,x,x,-4.4%,3.3%,x
SARS PLP yeast,2%,-8%,-5%,-8%,0%,-2%,-14%,x
NS1 function inh,3%,x,-11%,x,-4%,5%,23%,x
Marburg entry inh,u,1%,x,0%,x,1%,-18%,u
RE007 growth inh,1%,-3%,-3%,1%,14%,-15%,-30%,-5%
Cruzain noTriton,3%,x,x,x,x,-5%,u,x
Lassa entry inh,13µM*,25%,x,0%,x,-11%,-7%,14%
2A StopGo,25µM*,81%[activator],5%,25%,-4%,x,-10%,35%[activator]

Five entries picked at random from the list so far:
2	O=C(c1ccco1)N1CCN(c2ccc(N3CCCCC3)nn2)CC1
6	COc1ccc(OC)c(C2C(C(C)=O)=C(O)C(=O)N2Cc2cccnc2)c1 (stereo unspecified)
3	CC(C)(O)C#Cc1ccc(C(=O)N2CCCC(CCC(=O)NCc3ccccc3F)C2)cc1 (stereo unspecified)
4	Cc1ccsc1C(=O)NNC(=O)c1ccncc1
8	COc1cccc(NC(=O)c2nn(C)cc2Br)c1

assay / entry,2,6,3,4,8
Cruzain Triton,x,-4.4%,x,x,x
SARS PLP yeast,-8%,-2%,-5%,-8%,x
NS1 function inh,x,5%,-11%,x,x
Marburg entry inh,1%,1%,x,0%,u
RE007 growth inh,-3%,-15%,-3%,1%,-5%
Cruzain noTriton,x,-5%,x,x,x
Lassa entry inh,25%,-11%,x,0%,14%
2A StopGo,81%[activator],x,5%,25%,35%[activator]

(list continues)
9	Cc1ccc(CS(=O)(=O)CCC(=O)N2CCOCC2)cc1
10	COc1ccc(S(=O)(=O)N2CCN(c3ccccc3OC)CC2)cc1OC
11	CCCCCOc1ccc(NC(=O)c2cc(SC)ccc2Cl)cc1
12	CCC(=O)OC1c2ccccc2C(=O)N1Cc1ccccc1 (stereo unspecified)
13	C=CCc1c(C)nc2cc(-c3ccccc3)[nH]n2c1=O
14	Cc1ccc(F)cc1NC(=O)CCOc1ccccc1
15	COCCn1ccc2c(OCC(=O)NCc3ccc(F)cc3)cccc2c1=O
16	COc1ccc(C(=O)COc2ccc(C(C)=O)cc2OC)cc1OC

assay / entry,9,10,11,12,13,14,15,16
Cruzain Triton,2.8%,-3.1%,-7.3%,-1.1%,x,x,-1.2%,x
SARS PLP yeast,0%,-1%,-2%,2%,-10%,1%,x,x
NS1 function inh,0%,-15%,19%,1%,22%,x,x,x
Marburg entry inh,18%,2%,-1%,x,x,-22%[46.1 µM],x,-2%
RE007 growth inh,8%,10%,3%,-8%,-22%,8%,x,-18%
Cruzain noTriton,-3%,u,7%,-5%,x,x,-18%,x
Lassa entry inh,13%,-15%,8%,x,x,u,u,1%
2A StopGo,x,-16%,-11%,-7%,14%,-4%,-20%,-15%

17	CCOC(=O)C1=C(C)Nc2ncnn2C1c1ccccc1F (stereo unspecified)
18	CS(=O)(=O)c1ccc(Cl)c(NC(=O)COC(=O)CNC(=O)c2ccc(Br)o2)c1
19	CC(C)(C)c1ccc2c(c1)OCC(C(=O)O)O2 (stereo unspecified)
20	Cc1ccc(OCc2nnc(SCC(=O)Nc3ccccc3C(C)C)o2)cc1
21	CCn1nnnc1SCC(=O)Nc1cccc(NC(C)=O)c1
22	Cc1ccc(C)c(NC(=O)c2ccc3c(c2)CCN3S(=O)(=O)c2ccccc2)c1
23	O=[N+]([O-])c1ccccc1Nc1cccc(F)c1
24	O=C(c1cc(Br)c[nH]1)N1CCSCC1

assay / entry,17,18,19,20,21,22,23,24
Cruzain Triton,2.2%,-2.6%,-2.3%,-4.6%,2.5%,-1.8%,x,x
SARS PLP yeast,-1%,2%,0%,x,-2%,x,x,2%
NS1 function inh,-2%,-9%,-1%,x,0%,x,x,0%
Marburg entry inh,19%,6%&22%,9%,x,-12%,-18%[46.1 µM],4%[46.1 µM],16%[46.1 µM]
RE007 growth inh,6%,0%,1%,x,8%,x,-13%,1%
Cruzain noTriton,-17%,-3%,5%,-6%,8%,-2%,x,x
Lassa entry inh,17%,7%,7%,11%[46.1 µM],-14%,1%[46.1 µM],-1%[46.1 µM],-5%[46.1 µM]
2A StopGo,0%,-11%,15%,-10%,3%,19%,17%,0%

25	CC1=CCC2C(=O)N(c3cc(C)on3)C(=O)C2C1 (stereo unspecified)
26	Cc1cnn(-c2ccc3nnc(-c4ccc(Br)cc4)n3n2)c1
27	Cc1ccc(CCNC(=O)C2CCN(S(=O)(=O)c3ccc4c(c3)NC(=O)C(C)S4)CC2)cc1 (stereo unspecified)
28	O=C(CSc1ncn[nH]1)c1ccc(OC(F)F)cc1
29	O=C(N/N=C/c1ccc(-c2ccc([N+](=O)[O-])cc2)o1)c1cccnc1
30	COc1ccc(NC(=O)C(CC(=O)O)Cc2ccccc2)cc1 (stereo unspecified)
31	Cc1cc2oc(=O)c(CC(=O)O)c(C)c2c2occ(C(C)(C)C)c12
32	CC[C@H](C)C(C(=O)N1CCN(C(=O)OC(C)(C)C)CC1)n1cc(C(CC(C)C)NC(=O)OC(C)(C)C)nn1 (stereo partly specified)

assay / entry,25,26,27,28,29,30,31,32
Cruzain Triton,-0.5%,-5.7%,x,x,x,1.5%,x,x
SARS PLP yeast,23%,2%,-1%,0%,-2%,6%,3%,0%
NS1 function inh,6%,7%,-16%,-2%,-33%,-7%,8%,5%
Marburg entry inh,0%,-3%,u,15%[46.1 µM],-29%,-12%,29%[46.1 µM],x
RE007 growth inh,1%,-9%,7%,4%,3%,3%,-4%,0%
Cruzain noTriton,-9%,-15%,x,x,x,3%,x,x
Lassa entry inh,3%,u,u,2%,14%,7%,9%[46.1 µM],x
2A StopGo,-14%,62%[activator],32µM*,16%,-12%,15%,14%,-29%

33	COc1cccc(C2C(C(N)=O)=C(C)Nc3nc(-c4ccccc4Cl)nn32)c1 (stereo unspecified)
34	CN(C)CCOC(=O)c1cccc(Br)c1
35	Cc1ccc(S(=O)(=O)N2CCN(CC(=O)N/N=C\c3ccccn3)CC2)cc1
36	CC(CCc1ccccc1)NC(=O)CSc1nccc(=O)[nH]1 (stereo unspecified)
37	Cc1nc(-c2ccccc2)sc1C1(C)CC(c2ccc(C#N)cc2)=NO1 (stereo unspecified)
38	CCOC(=O)c1sc(NC(C)=O)nc1-c1ccccc1
39	CCOc1ccccc1N(C(=O)Nc1cccc(Cl)c1)C1=NC(C)CS1 (stereo unspecified)
40	Cc1nn(-c2ccccc2)c2c1C(c1ccc([N+](=O)[O-])cc1)N1C(=N2)C(=O)Nc2ccccc21 (stereo unspecified)

assay / entry,33,34,35,36,37,38,39,40
Cruzain Triton,2.4%,-0.6%,x,2.6%,x,1.2%,-1.0%,-10%
SARS PLP yeast,12%,-5%,-1%,2%,0%,1%,2%,14%
NS1 function inh,-3%,3%,-1%,0%,-5%,4%,-49%,10µM*
Marburg entry inh,-3%,u,x,8%,x,-5%,-6%,u
RE007 growth inh,11%,11%,4%,-5%,-2%,-2%,3%,22%
Cruzain noTriton,-6%,4%,x,-3%,x,-9%,-7%,-9%
Lassa entry inh,x,2%,x,2%,x,11%,14%,u
2A StopGo,1%,-3%,-13%,4%,10%,x,-20%,u

41	Cc1ccc(CS(=O)(=O)CCC(=O)NCCN(C)Cc2ccccc2)cc1
42	O=C(CN(C(=O)CNS(=O)(=O)c1ccc(F)cc1)C1CCCC1)NCc1ccco1
43	CCc1cccc(OCC(=O)Nc2cc(S(=O)(=O)N3CCOCC3)ccc2N2CCCC2)c1
44	Cc1ccc(C)c(N2CCN(C(=O)C3CCC3)CC2)c1
45	O=C(O)C1OC1(c1ccccc1Cl)c1ccccc1Cl (stereo unspecified)
46	Oc1ccc2ccccc2c1C=Nc1ccc(Cl)cn1
47	CCOC(=O)c1c(C)oc2ccc(OC(=O)COc3c(F)c(F)c(F)c(F)c3F)cc12
48	O=C(CSc1c2c(nc3ccc(Cl)cc13)CCCC2)N1CCCCC1
49	CCN(CCCNC(=O)C1CCCN(S(=O)(=O)c2cnc[nH]2)C1)c1ccccc1 (stereo unspecified)

assay / entry,41,42,43,44,45,46,47,48,49
Cruzain Triton,3.4%,x,x,x,x,x,-3.1%,-17%,2.3%
SARS PLP yeast,x,-2%,-1%,-6%,x,-1%,-53%,x,-2%
NS1 function inh,-8%,5%,3%,-43%,x,0%,-39%,x,4%
Marburg entry inh,-4%,10%[46.1 µM],x,x,5%,-1%[46.1 µM],-4%,6%[46.1 µM],x
RE007 growth inh,-4%,6%,13%,-12%,5%,-3%,2%,x,-1%
Cruzain noTriton,-3%,x,x,x,x,x,-19%,5%,-8%
Lassa entry inh,-5%,3%,x,x,2%[46.1 µM],-1%,u,-16%[46.1 µM],x
2A StopGo,12%,9%,17%,-25%,-8%,-22%,17%,u,-6%
